B2AR ag – activates human beta-2 adrenergic receptor causing internalization. Am2.2-beta2AR cells, FAP receptor internalization, flow cytometry; reference of the scale not given here. AID 504454. response, % (test concentration not listed). P07550. 340,000 tested, 0.43% active;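 active = response above a set limit, near 3 SD of response in nonfluorescent compounds, cut at about 42% in these data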;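 note: stock transfer was 100 nL into about 11 µL; a reference agonist was the positive control; negative values mostly stem from fluorescent compounds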
Target sequence (P07550 whole entry, looked up): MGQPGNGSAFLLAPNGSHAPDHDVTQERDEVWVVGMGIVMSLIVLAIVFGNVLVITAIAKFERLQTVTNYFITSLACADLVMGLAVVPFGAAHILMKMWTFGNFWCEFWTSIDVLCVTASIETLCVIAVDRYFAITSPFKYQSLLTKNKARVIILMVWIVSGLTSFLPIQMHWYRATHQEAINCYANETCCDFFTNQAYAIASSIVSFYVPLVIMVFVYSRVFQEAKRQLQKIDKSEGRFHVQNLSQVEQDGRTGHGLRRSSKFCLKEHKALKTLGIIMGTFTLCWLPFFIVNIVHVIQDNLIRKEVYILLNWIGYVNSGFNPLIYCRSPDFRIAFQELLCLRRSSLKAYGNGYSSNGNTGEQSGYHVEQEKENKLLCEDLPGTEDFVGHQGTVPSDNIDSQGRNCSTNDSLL
LANA-H2B inh – blocks KSHV LANA binding to histone H2A/H2B; cell-free LANA-H2A/H2B peptide, fluorescence polarization; inhibition, % (no concentration beside the values); 320,000 tested, 0.6% active; Q9QR71; AID 2629; in the data active = inhibition mostly above about 10%, no sharp cut-off; inactive = mostly below about 6.7%;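 note: stock transfer was 7.5 nL into about 10 µL; 0% = median of vehicle wells and 100% = median of positive control wells; one replicate is shown; the record names a cut of 25% in any replicate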
UCH37 inh – human UCH37 deubiquitinating enzyme inhibition; Q9Y5K5; purified proteasome/UCH37, Ub-AMC cleavage fluorescence; inhibition, % (no concentration beside the values); 330,000 tested, 0.33% active;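 active = mean of two replicates above 20%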;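 note: 0% = compound-free wells with enzyme and 100% = wells lacking proteasome; stock transfer was 100 nL into about 20 µL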
Target sequence (Q9Y5K5 whole entry, looked up): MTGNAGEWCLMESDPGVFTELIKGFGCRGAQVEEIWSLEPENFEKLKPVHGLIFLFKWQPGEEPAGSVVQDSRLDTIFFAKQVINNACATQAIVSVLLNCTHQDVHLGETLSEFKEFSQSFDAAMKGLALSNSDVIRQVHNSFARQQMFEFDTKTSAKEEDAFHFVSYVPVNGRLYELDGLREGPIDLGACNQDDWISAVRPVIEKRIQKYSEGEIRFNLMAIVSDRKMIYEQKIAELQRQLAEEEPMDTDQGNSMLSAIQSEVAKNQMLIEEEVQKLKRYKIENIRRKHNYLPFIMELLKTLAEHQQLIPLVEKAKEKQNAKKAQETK
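Assay system: Proteasome-bound UCH37. Buffer or medium: pH 7.4 Tris-HCl (50 mM) with ovalbumin, ATP-MgCl2, DTT. Incubation: 30 min preincubation with enzyme, 25 min cleavage at room temperature. Measured by: fluorescence, ex 355 nm, em 460 nm. Read-out basis: percent inhibition. Control set: wells without proteasome as full block, compound-free enzyme plus substrate as uninhibited.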
Ecoli growth – inhibitors of Escherichia coli growth. 330,000 tested, 0.21% active. OD600, 23 h; active compounds read low. OD600 absorbance (test concentration not listed). AID 1053175;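 active = OD600 absorbance below the run mean of sample wells minus 3.6 SD, in any replicate, cut at about 0.56 in these data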;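 note: stock transfer was 300 nL into about 60 µL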
FGF22 binding – shifts melting point of recombinant human FGF22; calls only at 9.99 µM; AID 651658; recombinant FGF22 thermal shift, SYPRO orange fluorescence; percent of sucrose octasulfate shift, DMSO zero; 340,000 tested, 1.5% active;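 active = melting point raised past a set limit in the mean and every replicate; three in four hits are not shown here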
ALR inh – inhibitors of human sulfhydryl oxidase ALR. P55789. purified ALR, DTT oxidation, H2O2 HRP-luminol luminescence. inhibition, % (no concentration beside the values). 290,000 tested, 3.8% active. AID 485317;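 active = mean and each replicate at 75% or more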;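 note: stock transfer was 7.5 nL into about 7.5 µL; 0% = neutral wells and 100% = wells with inactivated enzyme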
Target sequence (P55789 whole entry, looked up): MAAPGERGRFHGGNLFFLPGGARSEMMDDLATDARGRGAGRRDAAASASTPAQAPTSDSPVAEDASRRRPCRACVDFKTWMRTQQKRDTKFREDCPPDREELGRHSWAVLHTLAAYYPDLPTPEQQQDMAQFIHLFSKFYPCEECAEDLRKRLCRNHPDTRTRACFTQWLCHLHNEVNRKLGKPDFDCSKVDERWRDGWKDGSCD
HNF4A DNA FP – change in binding of human HNF4 alpha to DNA; AID 1224865; activity change, % at 10 µM; HNF4a-FITC DNA binding, fluorescence polarization, 1 h; P41235; 360,000 tested, 0.3% active; in the data active = activity change above about 30%, passing the limit was not always enough;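 note: controls were the assay level and a saturating level of protein; the project sought stronger binding though the title names inhibitors; some compounds called inactive have numbers as strong as hits; positive values seem to mean higher polarization but the record does not say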
The depositor's hits bear a star; i = inactive; nt = not tested or not shown; & = joins results of further samples. Only part of the results is shown; count on the stated rates, not on these rows.

SMILES	B2AR ag	LANA-H2B inh	UCH37 inh	Ecoli growth	FGF22 binding	ALR inh	HNF4A DNA FP
CCC(C(=O)NCCCN1CCN(CCCNC(=O)C(CC)c2ccccc2)CC1)c1ccccc1 (stereo unspecified)	6.1	0.1	0.1	0.654	i	-6.4	1.8
O=C(Nc1nc2ccccc2c(=O)[nH]1)c1ccccc1SCc1ccccc1	-0.9	3.3	2.0	0.696	i	2.2	1.8
COc1ccc(S(=O)(=O)N2CCN(CC(=O)NC3CC3)CC2)cc1	-0.2	-0.5	-0.1	0.692	i	1.1	0.8
CNc1ccccc1C(=O)OCC(=O)N(CCOC)c1c(N)n(CC(C)C)c(=O)[nH]c1=O	-6.9	-1.9	i	0.646	i	nt	-3.4
N#C/C(=C\c1ccco1)C(=O)Nc1ccc(S(N)(=O)=O)cc1	0.9	0.0	6.2	0.688	i	-1.3	2.2
CCCCN(C)C(=O)C1CCCN(S(=O)(=O)c2ccc3c(c2)CC(C)N3C(=O)C2CC2)C1 (stereo unspecified)	-0.7	2.8	5.2	0.7	i	-4.4	0.5
Cc1nn(C(C)C(=O)c2cccc(Cl)c2)c(C)c1[N+](=O)[O-] (stereo unspecified)	-9.4	-4.7	5.2	0.681	i	-19.9	-2.5
O=c1c2c([N+](=O)[O-])cc([N+](=O)[O-])cc2nc2ccccn12	17.6	-1.5	5.6	0.619	i	-6.6	-2.3
NC(=O)COC(=O)c1c2c(nc3ccccc13)CCC2	0.3	2.6	-12.3	0.689	i	-9.6	-6.1
Cc1c(C2(O)CCCCC2)[nH]c2ncccc12	-2.3	0.2	6.5	0.771	i	3.0	3.3
NC(=O)c1cccc2ccccc12	-2.0	-4.2	1.2	0.661	i	-12.2	0.3
Cc1ccc(CNC(=O)CN(c2ccc(Cl)cc2)S(C)(=O)=O)cc1	4.0	-4.8	5.9	0.702	i	-7.9	-3.1
COc1ccccc1-c1nc(SC)n[nH]1	-3.2	1.0	1.8	0.709	i	nt	-4.1
O=C(NCC(O)c1ccccc1)c1ccc(Cl)c(S(=O)(=O)N2CCCC2)c1 (stereo unspecified)	2.4	0.5	0.3	0.673	nt	-0.2	2.2
Cc1cc(C(=O)COC(=O)CN(C)S(=O)(=O)c2ccc(Cl)cc2)c(C)n1Cc1cccs1	-0.2	3.3	2.5	0.707	nt	-0.2	-2.5
CCCCn1c(N)c(N(CCC(C)C)C(=O)c2cccc(S(=O)(=O)N3CCN(C)CC3)c2)c(=O)[nH]c1=O	0.2	0.6	2.2	0.678	i	-5.8	3.2
Cc1nn(-c2ccccc2)c(N2CCCC2)c1/C=N/O	-2.8	5.3	nt	nt	i	-1.9	0.4
Cn1ccsc1=NC(=O)c1cc(S(=O)(=O)N2CCOCC2)ccc1Cl	-8.1	2.1	4.9	0.702	i	0.6	-3.2
CCOC(=O)c1c(C)[nH]c(C(=O)COC(=O)C2CC2)c1C	-0.3	nt	1.5	0.65	i	nt	0.1
COc1ccc(C(=O)N2CCN(S(=O)(=O)c3ccc(Cl)cc3)CC2)cc1S(=O)(=O)N1CCOCC1	-1.9	nt	2.2	0.665	i	nt	-1.6
Cc1cccc(C)c1N(CC(=O)Nc1cccc(N(C)S(C)(=O)=O)c1)S(C)(=O)=O	-1.5	-1.2	4.6	0.709	nt	nt	0.3
O=C(CN1CCN(Cc2ccc(Cl)cc2)CC1)N/N=C/c1cccs1	-2.3	2.6	nt	nt	i	-3.4	-2.8
O=S(=O)(c1ccccc1Br)N1CCC(O)(c2cccnc2)CC1	1.6	-4.6	2.5	0.659	nt	-10.1	-1.0
OC(CNCc1cccc(Cl)c1)c1ccccc1 (stereo unspecified)	-7.5	-0.2	1.0	0.7	i	-3.7	-2.8
Cc1cccc(NC(=O)CN2CCc3cc4c(cc3C2)OCCCO4)c1	-2.2	4.1	3.7	0.665	i	0.9	-0.3
New compounds follow:
SMILES	B2AR ag	LANA-H2B inh	UCH37 inh	Ecoli growth	FGF22 binding	ALR inh	HNF4A DNA FP
CCO[C@@H]1OC(C(=O)N2CCN(Cc3ccc4c(c3)OCO4)CC2)=C[C@H](c2ccc3c(c2)OCO3)[C@H]1CCCO	nt	-2.4	3.6	nt	i	-9.7	nt
CC(C)CN(CCCNC(=O)CN1C(=O)COc2ccc(S(=O)(=O)N3CCC(C)CC3)cc21)CC(C)C	-7.1	-4.4	4.3	0.712	i	-7.0	4.7
Cc1c(C=O)c2ccccc2n1CC(=O)NCc1ccccc1	8.7	-4.2	2.8	0.66	i	-2.9	2.9
CCn1cc(/C=C(\NC(=O)c2ccc(C)cc2)C(=O)NCCN2CCOCC2)c2ccccc21	4.8	nt	14.4	0.692	i	nt	4.4
CCC(C)NC(=O)C1CCC(=O)N(c2cc(OC)c(OC)c(OC)c2)C1c1ccc(OC)cc1 (stereo unspecified)	-2.6	-0.8	0.9	0.722	nt	-5.2	3.3
O=Cc1ccc(N2CCCCC2)cc1	0.8	-11.6	10.5	0.722	i	-47.1	-1.8
COc1cc(OC)cc(C(=O)Nc2nnc(-c3cccnc3)o2)c1	8.9	-0.2	6.7	0.727	i	-3.5	4.7
Cc1cc(C(=O)N2CCCC(N3CCN(Cc4ccc5c(c4)OCO5)CC3)C2)n[nH]1 (stereo unspecified)	-1.9	-2.9	0.1	0.684	i	-6.7	-2.4
C/C(=N/NS(=O)(=O)c1ccccc1)c1ccc(Cl)cc1	-3.0	-4.0	nt	nt	i	14.4	-1.9
CC1=NNC(=O)C1CC(=O)N/N=C(\C)c1cccs1 (stereo unspecified)	0.7	4.4	nt	nt	i	12.7	-1.6
S=c1nc(-c2ccccc2Br)[nH][nH]1	-9.4	-5.0	2.8	0.668	i	98.5*	-5.8
COc1ccc(S(=O)(=O)N2CCOC2CNC(=O)C(=O)NCCCN2CCOCC2)cc1 (stereo unspecified)	-4.4	-0.6	2.2	0.67	i	-11.8	2.0
O=C1NC(=O)C2(CCCCCCCCCCC2)N1	3.5	-3.2	2.2	0.707	i	nt	2.6
Cc1nn(CC(=O)N(C)Cc2ccc(F)cc2)c(C)c1[N+](=O)[O-]	12.9	-1.1	5.5	0.706	nt	-21.2	-5.2
COc1ccc([C@@H]2[C@@H]3C(=O)N(C(C)(C)C)C(=O)[C@@H]3[C@]3(Cc4ccccc4)C(=O)N(c4ccc(C)cc4)C(=O)N23)cc1	-2.1	1.8	-2.0	nt	i	1.4	-2.0
Cc1cc(S(=O)(=O)N2CCN(c3ccccc3C)CC2)ccc1F	8.3	7.1	4.4	0.77	nt	nt	-6.5
COc1ccc(-n2c(SCC(=O)N/N=C/c3ccccc3OCC(=O)O)nc3ccccc3c2=O)cc1	-2.1	4.7	nt	nt	i	nt	6.9
CC1CCC2(CC1)NC(=O)N(CC(=O)Nc1ccccc1-c1ccccc1)C2=O (stereo unspecified)	0.1	-0.2	4.3	0.697	i	-3.0	2.5
CC(C)(C)OC(=O)NNC(=S)NCc1ccc(Cl)cc1	2.2	-5.6	-0.4	0.695	nt	12.4	-1.5
O=C(NN1C(=O)C2CC=C(Cl)CC2C1=O)c1ccncc1 (stereo unspecified)	-0.9	-4.7	0.7	0.631	i	-5.7	-17.7
CCOCC(=O)Nc1ccc([N+](=O)[O-])cc1Cl	0.2	2.5	0.8	0.714	i	-4.5	-1.6
CC1Oc2ccccc2C=C1/C=N\NC(=O)c1cccnc1 (stereo unspecified)	3.6	-2.1	nt	nt	i	4.2	0.0
CC1CCCCC1NC(=O)c1ccc(CNc2c(N3CCCC3)c(=O)c2=O)cc1 (stereo unspecified)	-12.6	3.8	5.8	0.713	i	0.0	5.8
Cc1nc(CNC(=O)c2cc(COc3c(F)cccc3F)on2)cs1	-8.2	-0.4	0.8	0.673	i	-6.2	-9.2
O=C(CCCc1nc2ccccc2s1)Nc1nccs1	-4.4	2.3	1.3	0.72	nt	-6.8	-0.1
(more compounds)
SMILES	B2AR ag	LANA-H2B inh	UCH37 inh	Ecoli growth	FGF22 binding	ALR inh	HNF4A DNA FP
CC12CCC(C(=O)NCCCn3ccnc3)(OC1=O)C2(C)C (stereo unspecified)	-3.9	-0.9	3.3	0.678	nt	-3.8	-1.4
COc1ccc(C(=O)Nc2ccc(NC(=O)c3cc(OC)c(OC)c(OC)c3)cn2)cc1	10.4	-10.9	-49.8	0.65	i	nt	1.0
O=C(Cn1cnc2c(cnn2-c2ccc(F)cc2)c1=O)N1CCCc2ccccc21	9.3	-1.5	1.2	0.664	nt	2.0	2.7
CC(=O)/C(=C/c1ccccc1)C(=O)Nc1ccccc1C	43.4*	0.0	5.9	0.708	i	56.4	-0.6
C[C@H]1COC(=O)CCC/C=C\C[C@H](CC(=O)N(CCO)Cc2ccccc2)C(=O)N1	2.3	nt	-2.3	0.72	i	nt	-2.1
CCC(=O)c1ccc(OCc2ccc(C(=O)c3ccccc3)cc2)cc1	-2.1	1.5	3.3	0.749	i	nt	-1.6
Fc1ccc(NCc2nnc(SCc3nnc(-c4ccccc4)o3)n2CC2CCCO2)cc1 (stereo unspecified)	0.1	1.9	3.3	0.672	nt	nt	-1.5
Cc1ccc(CNC(=O)c2ccc(Br)o2)cc1	-5.1	3.9	0.5	0.639	i	-2.6	-1.6
Cc1cc(C)n2nc(/C(C#N)=C/c3ccccn3)c(C#N)c2n1	-0.1	2.7	-7.9	0.669	i	-0.2	0.1
CCOC(=O)COc1ccc(S(=O)(=O)Nc2ccc3c(c2)OCO3)cc1	7.3	-2.7	0.9	0.712	nt	8.3	2.2
COc1ccc(-n2c(SCC(=O)Nc3ccc(C(N)=O)cc3)nc3c([nH]c4ccccc43)c2=O)cc1OC	-0.8	-1.9	-2.7	0.678	i	-13.9	4.4
Cc1ccc(C(=O)Nc2cccc([N+](=O)[O-])c2)cc1S(=O)(=O)Nc1ccc(NC(=O)c2ccccc2)cc1	3.1	0.6	nt	nt	nt	-5.2	5.5
O=C(CN(C(=O)CNC(=O)c1cccs1)c1ccc(F)cc1)NC1CCCC1	-23.7	-1.7	4.5	0.701	i	nt	-2.0
COc1cccc(CN2CCNC(=O)C2CC(=O)N(C)CC2CCOCC2)c1 (stereo unspecified)	-10.6	-0.2	-2.2	0.704	i	-7.2	-0.4
CCCCc1nc2ccccc2c(=O)n1NC(=O)c1c(O)c2ccccc2n(C)c1=O	-8.1	10.4	2.5	0.709	i	2.9	-2.7
CNS(=O)(=O)c1ccc(CCC(=O)N2CCOCC2)cc1	2.5	1.6	nt	nt	i	nt	1.4
O=C(CSc1nnc(Cn2nnc(-c3ccccc3)n2)n1-c1ccccc1)Nc1ccc(F)cc1	-10.9	3.9	1.7	0.713	nt	-2.5	3.2
CC(C)(C)NCC(O)COCc1ccc(Cl)cc1 (stereo unspecified)	-4.7	6.6	5.0	0.725	nt	0.6	3.0
Cc1ccc(CNCCCSc2nc(C)cc(C)n2)cc1	-6.2	5.1	-1.1	0.661	i	-10.1	2.4
COc1ccc(-c2ncn(CCC#N)c2[N+](=O)[O-])cc1	4.0	-5.7	6.6	0.67	nt	5.3	-0.7
CCN(CC)S(=O)(=O)c1ccc(C(O)=C(C#N)c2nc3ccccc3n2C)cc1	0.5	nt	-7.2&0.8	0.698&0.656	i	nt	-5.1
CCCCCCOC(=O)/C=C/c1c(C)[nH]c(=O)[nH]c1=O	-6.5	-0.2	-0.4	0.67	nt	-4.3	0.0
Cc1ccc(S(=O)(=O)N2CCN(C)CC2)cc1C(=O)NC1CCCCC1	0.9	0.9	2.7	0.688	i	0.2	-2.6
CC(C)(C)c1n[nH]c(=S)n(/N=C/c2cccs2)c1=O	-3.6	2.1	nt	nt	i	17.0	2.7
CCOc1ccc(NC(=O)C2CC(=O)N(CC)C(=Nc3ccc4c(c3)OCO4)S2)cc1 (stereo unspecified)	16.0	-3.6	-3.0	0.695	nt	-5.8	-10.1
COc1ccc(CNC(=O)CNS(=O)(=O)c2ccc(Cl)cc2)cc1	-10.2	1.1	5.8	0.716	i	1.0	-0.3
